# Vaccinia Venus: qHTS for Stage-Specific Inhibitors of Vaccinia Orthopoxvirus: Venus Reporter Primary qHTS; Vaccinia virus Venus reporter expression, fluorescence; Potency, µM (top dose mostly 36.5 µM), for inactives: top-dose activity change, negative = inhibition, hits mostly inhibitors; actives 0.46% (n = 330,000); AID 720580, 2013; active means well fitted inhibition curve with a large enough effect; inconclusive means small, poorly fitted or top-dose-only effect; inactive means no such curve, though single readings can be large or run the other way; tested in A549 cells; also: nearly all actives have a fitted effect of over 30% in size; inactives centre near -10
# VACV mCherry inh: qHTS for Stage-Specific Inhibitors of Vaccinia Orthopoxvirus: mCherry Reporter Primary qHTS; Vaccinia virus mCherry reporter infection, fluorescence; about a quarter of the inactives have no number; Potency, µM (doses to about 36.5 µM), without a hit: top-dose activity change, negative = inhibition, most hits filed as inhibitors; actives 0.63% (n = 310,000); AID 720579, 2013; active = well fitted inhibition curve with a large enough effect; inconclusive = small, poorly fitted or top-dose-only effect; inactive = no such curve, though single readings can be large or run the other way; tested in A549 cells; also: nearly all actives have a fitted effect of over 35% in size; inactives centre near -10
# Numbers without * were called inactive; i = inactive; ? = inconclusive; nt = not tested or not shown; & = joins results of further samples; [ ] = remark or other dose. % is scaled to controls: 0 for no effect and ±100 for the full control effect; potency is read from the fitted curve at half-maximal effect.
structure	Vaccinia Venus	VACV mCherry inh
CC1(C)CC(=O)C2=C(C1)NC(Nc1nc3ccccc3o1)=NC2c1cccc(F)c1 (configuration not stated)	2%	20%
N=c1oc2ccccc2cc1C(=O)NCc1ccccc1	-4%	-1%
COc1ccc(/C=C2\SC(=N)N(c3ccc(F)cc3)C2=O)cc1OC	3%	1%
CN(Cc1ccccc1)C(=O)c1ccc2sc([C@H]3C[C@H](O)[C@@H](CO)O3)nc2c1	-7%	7%
CCOc1ccc(OCC)c(-n2cnnn2)c1	-1%	7%
Cc1cc2c(cc(C(=O)OC(C(=O)NCc3ccco3)C(C)C)n2C)o1 (configuration not stated)	-1%	i
NCCCC[C@H](NC(=O)[C@H](Cc1ccccc1)NC(=O)[C@H](CCCN=C(N)N)NC(=O)[C@@H](N)Cc1ccc(O)cc1)C(N)=O	-14%[3.33 µM]	0%[3.33 µM]
O=C1NC(=O)C(CCc2ccncc2)(CCc2ccccn2)C(=O)N1c1ccc(Br)cc1 (configuration not stated)	-2%	-12%
O=S(=O)(c1ccc(S(=O)(=O)N2CCC3(CC2)OCCO3)cc1)N1CCCC1	-7%	-9%
O=C(c1ccc(Cn2cnnn2)cc1)N1CCOc2ccc(C(O)C3CCCCC3)cc2C1 (configuration not stated)	-8%	-18%
O=C(O)CCCC(=O)N1CCCC1	5%	-2%
CC(=O)N1CCN(c2ccccc2NC(=O)COc2ccc(Cl)cc2Cl)CC1	-8%	nt
C=CCn1c(SCCN2CCCC2)nc2c([nH]c3ccccc32)c1=O	12%	i
CC(=O)N(C)C[C@H]1Oc2ncc(Br)cc2C(=O)N([C@H](C)CO)C[C@@H]1C	2%	-11%
Cc1ccc2c(CC(=O)OCc3cc(=O)n4c(n3)sc3ccccc34)coc2c1	2%	-11%
COC(=O)c1sc2nc3c(cc2c1N)CCCC3	?	?
CN(C)c1ccc(/C=N/NC(=O)c2cccc(C(=O)N/N=C/c3ccc(N(C)C)cc3)n2)cc1	0%	i
Cc1ccc(NC(=O)C(=O)NCC2CCCO2)cc1C (configuration not stated)	-8%	-12%
CCn1c(SCC(=O)Nc2cc(C)ccc2C)nc2c(c1=O)SC(C)C2 (configuration not stated)	-14%	-5%
O=C(NC1=NCCS1)C1Cc2ccccc2CN1C(=O)c1ccccc1 (configuration not stated)	-3%	-8%
Clc1cccc(N2CCN(c3ncnc4c3nc3n4CCCC3)CC2)c1	-10%	-21%
O=C1COC(c2ccccc2O)=NN1CCCl	-11%	-14%
CC(=O)c1ccc(-c2ccc3c4c(ccc3c2)OC(CNC(=O)[C@@H]2CCCN2C(C)=O)C4)s1 (some centres not stated)	-17%	-3%
CCOc1ccc(NC(=O)CCNS(=O)(=O)c2ccc3c(c2)CCC(=O)N3)cc1	-9%	i
Cc1cc(NS(=O)(=O)c2ccc(NC(=S)NC(=O)c3ccc(Br)cc3)cc2)no1	0%	-19%

# Fetched by structure from above (three):
structure	Vaccinia Venus	VACV mCherry inh
N=c1oc2ccccc2cc1C(=O)NCc1ccccc1	-4%	-1%
C=CCn1c(SCCN2CCCC2)nc2c([nH]c3ccccc32)c1=O	12%	i
Cc1ccc2c(CC(=O)OCc3cc(=O)n4c(n3)sc3ccccc34)coc2c1	2%	-11%

# Following part:
structure	Vaccinia Venus	VACV mCherry inh
CN1CCC(N(C)C(=O)c2cc(=O)c3ccccc3o2)CC1	3%	-6%
CN(C)c1ccc(Cc2cc3c(O)ccc(O)c3cc(Cc3ccc(N(C)C)cc3)c2=O)cc1	7%	-7%
CSc1ccccc1OCc1cc(C(=O)N(C)Cc2cnccn2)no1	-1%	-16%
Cc1cc2c(c(-c3ccc(Cl)cc3)c1)OC(CNC(=O)CCC(=O)N(C)C)C2 (configuration not stated)	-15%	-17%
c1coc(CNc2nc[n+]3c4c2ncn4CC3)c1	-8%	-12%
CN(C)CC(=O)c1c[nH]c2ccccc12	-14%&-6%	-11%&-8%
O=c1cc(CN2CCN(Cc3ccccc3)CC2)c2ccc(O)cc2o1	-7%	52%[activator]
O=C(N/N=C/c1cc(Cl)cc([N+](=O)[O-])c1O)NC12CC3CC(CC(C3)C1)C2	-19%	-7%
CCc1ccc2c(F)cccc2n1	3%	5%
COC(=O)c1nn(-c2ccc(OC)cc2)c(=O)cc1NN	-13%	-13%
CCOc1ccccc1NC(=O)Cn1c(=O)nc(-c2ccccc2F)c2cc(Cl)ccc21	-18%	-3%
O=C(NCCO)N1c2ccccc2Sc2ccccc21	-18%	-17%
CC(CCc1ccccn1)C(=O)c1ccccc1 (configuration not stated)	-15%	i
CCC(=O)Nc1ccc(NC(=O)CSc2nnc(-c3ccc(O)cc3)n2CC2CCCO2)cc1 (configuration not stated)	-6%	3%
CCN(CC)C(=O)CSc1nc2cccnc2n1-c1ccccc1OC	2%	-6%
Cc1ccc(N(CC(=O)NC2CCCC2)C(=O)CCC(=O)Nc2ccccn2)cc1C	-6%	i
Cc1cccc(C(=O)NCCc2nc3ccccc3n2Cc2ccccc2Cl)c1	-8%	-13%
COc1ccc(Cn2c(=O)c3cccnc3n(Cc3cccc(F)c3)c2=O)cc1	6%	-14%
Cc1nc2c(cnn2-c2ccccc2Cl)c(=O)n1-c1ccc(C(C)C)cc1	0%	-16%
CCOC(=O)c1ccc(CSc2nnc(C)n2N)o1	3%	nt
COc1ccc(-c2cc(=O)c3cc(O)ccc3o2)cc1	-8%	-8%
COc1ccc(N=C(C)c2sc3ccccc3c2O)cc1	4%	i
Cc1cc(C)c(NC(=O)CSc2ncc(S(=O)(=O)c3ccc(C(C)(C)C)cc3)c(=O)[nH]2)c(C)c1	3%	-4%
CCOC(=O)[C@]12Cc3cc(C)ccc3[C@H]1N(Cc1ccccc1)C(=O)c1cc(OC)ccc12	?	-28%
O=c1c2ccccc2ncn1CCOCCOc1cccc(Br)c1	-9%	-8%

# (more compounds)
structure	Vaccinia Venus	VACV mCherry inh
Cc1cccc(C(CC(=O)O)n2cccc2)c1 (configuration not stated)	-6%	i
c1cc2c3c(cccc3c1)C(N1CCCCC1)=N2	-21%	-4%
O=C(c1ccccc1[N+](=O)[O-])N1CC2C3C=CC(C3)C2C1 (configuration not stated)	-9%	i
O=C1CC(=Nc2ccc([N+](=O)[O-])cc2)NN1c1c(Cl)cc(Cl)cc1Cl	-15%	-16%
COc1ccc(C2CC(c3cccc([N+](=O)[O-])c3)=NN2/C(C)=C/C(C)=O)cc1 (configuration not stated)	1%	?
Cc1ccc(C)c(SCC(=O)OC/C(O)=C(\C#N)c2nc3ccccc3[nH]2)c1	-4%	i
CCc1nc(-c2cc(S(=O)(=O)N3CCN(c4ccccc4)CC3)ccc2OC)no1	-12%	-22%
COc1cccc(CNC(=O)CN2C(=O)COc3ccc(S(=O)(=O)N4CCCCC4)cc32)c1	-19%&-5%	1%&5%
O=C(NCc1ccco1)/C(=C\C=C\c1ccccc1)NC(=O)c1ccccc1Br	5%	i
COC(=O)C1C(=O)C2=C(CC1C)Nc1ccccc1NC2c1ccc(C)s1 (configuration not stated)	-2%	-14%
Cc1cc([N+](=O)[O-])nn1CCCC(=O)Nc1cc(Oc2ccccc2)cc([N+](=O)[O-])c1	-11%	-12%
Cc1ccc(S(=O)(=O)N2CCC(C(=O)NCCCn3ccnc3)CC2)cc1	-7%	-15%
COc1ccc2c(c1)OC[C@H]1[C@H]2N2C(=O)CNC(=O)[C@@]2(C)[C@H]1c1ccccc1	-3%	-16%
CC1Cc2ccccc2N1C(=O)c1cnsn1 (configuration not stated)	-8%	-21%
Brc1ccc(-c2noc(CCc3ccccc3)n2)cc1	-7%	-11%
O=C(NNC(=O)C12CC3CC(CC(Cl)(C3)C1)C2)c1csc(N2CCOCC2)n1	-2%	?
CCCCCN1C(C(=O)c2ccccc2)=C(NC(=O)c2ccccc2Cl)c2ccccc2S1(=O)=O	4%	i
COc1cccc(CN2C(=O)C3(SCC(=O)N3c3ccc(C)c(Cl)c3)c3ccccc32)c1 (configuration not stated)	?	?
CC1C/C(=C/c2ccccn2)C(=O)/C(=C/c2ccccn2)C1 (configuration not stated)	?	?
CN(C)/C=N/c1cc(=O)n(Cc2ccccc2)c(=O)n1C	-15%	-15%
O=C(O)CCn1c(SCCc2ccccc2)nc2ccccc21	-9%	i
CN(C)CCCOc1cccc(Cl)c1	-13%	-13%
O=C(CN1CCC(n2nnc3cc(C(F)(F)F)ccc32)CC1)NCc1cccs1	-23%	?
Cc1cccc(NC(=O)CN2C(=O)COc3ccc(S(=O)(=O)N4CCC(C)CC4)cc32)c1C	-5%	-6%
Cn1c(=O)n(C)c2cc(NC(=O)c3ccc(F)cc3)c(Br)cc21	-3%	-15%

# (list continues)
structure	Vaccinia Venus	VACV mCherry inh
Cc1ccc(NC(=O)c2c(C(=O)Nc3ccccc3)sc3nc(C)cc(=O)n23)cc1	-12%&1%	-6%&-7%
COc1ccc(NC(=O)COCc2cc(-c3ccco3)on2)cc1Cl	-8%	i
CC(C)(C)OC(=O)N1CCC(c2nnc(SCc3ccccc3F)o2)CC1	1%	-12%
CC(=O)Nc1cccc(NC(=O)CSc2nccn2Cc2ccccc2)c1	-10%&-22%	?
CC(C)(C)C1CCN2CCC[C@](c3ccccc3)(C1)C2OCCCO (some centres not stated)	2%	10%
COc1ccc(NC(=O)c2sccc2OS(=O)(=O)N(C)C)cc1	-11%	i
CN(C)CCN(C(=O)CN1C(=O)c2ccccc2C1=O)c1nc2cc3c(cc2s1)OCO3	-2%	-14%
CCOc1ccc(Nc2cc(C)nc3nc(C)nn23)cc1	-9%	-13%
COc1cc(C)ccc1OCC(=O)Nc1ccccc1N1CCOCC1	-6%	i
c1ccc(CCNc2cc(-c3ccc4ccccc4c3)nc3ccnn23)nc1	-15%	-6%
O=c1oc(-c2cccs2)nc2ccc(Br)cc12	-14%	-22%
Cc1cc2nc(-c3cccnc3SCC(=O)NCc3ccco3)[nH]c2cc1C	-16%	i
COc1ccc(CCNC(=O)C2CCN(S(=O)(=O)c3cc(OC)ccc3OC)CC2)cc1	-14%	nt
COC(=O)C[C@H](NC(=O)Cn1cnc(C(=O)Nc2ccc(C)c(C)c2)n1)C(=O)OC	-1%	-8%
O=C(Nc1c(-c2ccccc2)[nH][nH]c1=O)c1ccc(-c2ccccc2)cc1	-13%	?
Cc1ccc(C)c(S(=O)(=O)N2CCN(C(=O)[C@@H]3CCCN3C(=O)c3cccs3)CC2)c1	-12%	-1%
Cc1cc(C)nc(NS(=O)(=O)c2ccc(NC(=O)Cc3ccccc3F)cc2)n1	0%	-1%
COC(C[C@@H](O)C[C@@H](O)COCc1ccccc1)OC	-13%	i
CC(=O)Nc1cccc(NC(=O)c2ccc(COc3ccccc3)cc2)c1	-13%	3%
Nc1nc(SCC(=O)N2CCN(c3ccc(F)cc3)CC2)n[nH]1	-9%	-16%
O=C(NCC1Cc2cccc(-c3cccnc3)c2O1)c1ccc2cc[nH]c2c1 (configuration not stated)	-15%	i
COc1ccc(S(=O)(=O)N2CCOCC2)cc1NC(=O)Cc1ccsc1	-14%	-17%
CCNC(=O)Cn1cc(C#N)c2ccccc21	-4%	nt
CCC1(c2ccc(F)cc2)NC(=O)N(CC(=O)NCc2ccc(C)cc2)C1=O (configuration not stated)	-18%	i
N=C(N)SCCc1cnc[nH]1	-11%&-1%	-12%

# (cont.)
structure	Vaccinia Venus	VACV mCherry inh
CCN(CC)c1nc(-c2ccccc2)nc2ccccc12	-17%	-7%
CSc1ccc(C2c3c(-c4ccccc4O)n[nH]c3C(=O)N2Cc2ccncc2)cc1 (configuration not stated)	-29%	?
COCC(=O)NC(c1ccccc1)c1ccccc1	-10%	-10%
C=CCN=C1NN=C(c2ccc3c(c2)OCCO3)CS1	-16%	?
CCN(CC)c1ccc([N+](=O)[O-])c2cccnc12	-1%	-2%
Nc1ccn([C@@H]2O[C@H](CNC(=O)[C@@H](Cc3cccnc3)NC=O)[C@@H](O)[C@H]2O)c(=O)n1	-9%	-10%
Cc1ccc2oc(C(=O)Nc3sc4c(c3C(=O)NCc3cccnc3)CCCC4)cc(=O)c2c1	2%	10%
O=C1NC(=O)/C(=C/c2ccccc2Oc2ccc(Cl)cc2)S1	-16%	-5%
CCCCNC(=O)C1(C)CCCCN1C(=O)c1ccc2sccc2c1 (configuration not stated)	-5%	39%[activator]
COc1ccccc1NC(=O)COC(=O)c1cc(C)n(C2CC2)c1C	-13%	-9%
Cc1cccc(C(=O)NCC(=O)NC2CCN(Cc3ccccc3)CC2)c1	-8%	i
O=C(N/N=C/c1cccc(OCc2ccccc2)c1)c1ccc(Br)cc1	-22%	-23%
CC(=O)c1c(C)[nH]c(C(=O)N2c3ccccc3CC2C)c1C (configuration not stated)	-14%	-4%
CN1CCN(c2ccncc2S(=O)(=O)N2CCCCC2)CC1	-25%	-4%
CCOc1ccc(NS(=O)(=O)c2ccc3[nH]cc(C(=O)NCC4CCCO4)c(=O)c3c2)cc1 (configuration not stated)	3%&-10%	3%&-11%
Cc1c(CCC(=O)NCCc2ccccc2)c(=O)oc2c(C)c(O)ccc12	-1%	1%
Cc1ccc(S(=O)(=O)Nc2cc3c4c(c2)C(C)C(=O)N4CCC3)cc1 (configuration not stated)	-12%	i

# Source: PubChem
